hNpr1 antagonist: blocks ANP-stimulated signaling of human Npr1 receptor; Potency, µM (doses to about 46.3 µM), without a hit: top-dose activity change, negative = inhibition, most hits filed as inhibitors; AID 1347048; HEK293 hNpr1 GloSensor cGMP, ANP-stimulated luminescence; hit rate 1.6% among 76,000; P16066; active = well fitted inhibition curve with a large enough effect; inconclusive = small, poorly fitted or top-dose-only effect; inactive = no such curve, though single readings can be large or run the other way;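 further: nearly all actives have a fitted effect of over 60% in size; nearly all hits also lower the signal before the agonist is added; a reference antagonist and vehicle were the controls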
Target sequence (P16066 whole entry, looked up): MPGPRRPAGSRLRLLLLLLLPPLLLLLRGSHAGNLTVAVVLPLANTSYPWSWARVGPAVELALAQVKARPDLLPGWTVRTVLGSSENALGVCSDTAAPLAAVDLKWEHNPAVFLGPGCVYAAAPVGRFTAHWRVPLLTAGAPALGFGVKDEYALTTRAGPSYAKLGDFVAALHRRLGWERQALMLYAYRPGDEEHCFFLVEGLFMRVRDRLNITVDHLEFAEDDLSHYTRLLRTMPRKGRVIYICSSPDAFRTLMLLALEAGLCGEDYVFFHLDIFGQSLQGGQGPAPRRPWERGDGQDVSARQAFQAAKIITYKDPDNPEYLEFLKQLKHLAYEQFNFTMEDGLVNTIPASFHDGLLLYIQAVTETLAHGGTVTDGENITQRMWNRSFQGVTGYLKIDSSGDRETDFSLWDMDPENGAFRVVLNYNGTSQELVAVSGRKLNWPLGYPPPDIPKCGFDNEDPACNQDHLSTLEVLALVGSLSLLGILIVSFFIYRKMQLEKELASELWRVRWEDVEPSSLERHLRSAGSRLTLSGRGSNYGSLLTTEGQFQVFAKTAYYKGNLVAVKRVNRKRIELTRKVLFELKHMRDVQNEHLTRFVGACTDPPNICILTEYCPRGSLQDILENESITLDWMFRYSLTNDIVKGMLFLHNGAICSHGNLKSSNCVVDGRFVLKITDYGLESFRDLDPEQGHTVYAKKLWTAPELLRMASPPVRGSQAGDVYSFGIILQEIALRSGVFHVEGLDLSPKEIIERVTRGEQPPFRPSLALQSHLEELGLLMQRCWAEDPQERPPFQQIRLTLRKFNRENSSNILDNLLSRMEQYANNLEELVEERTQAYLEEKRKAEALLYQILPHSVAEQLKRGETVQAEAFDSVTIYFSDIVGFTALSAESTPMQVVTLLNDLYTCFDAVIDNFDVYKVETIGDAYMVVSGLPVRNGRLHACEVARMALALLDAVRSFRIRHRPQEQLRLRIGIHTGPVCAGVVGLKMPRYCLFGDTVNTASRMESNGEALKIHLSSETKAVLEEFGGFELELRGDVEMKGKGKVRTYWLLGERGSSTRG
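Compound pre-incubated 30 min at room temperature on GloSensor-loaded HEK293 cells stably carrying hNpr1 and the pGS-40F cGMP biosensor. Stimulation uses hNppA at 0.1 nM final; luminescence is taken at baseline and 20 min post-agonist.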
Active calls of the source: *; ? = inconclusive; [ ] = another dose, or the depositor's remark. On the % scale 0 is the no-effect control and ±100 the full control effect; potency means the concentration at half of the fitted maximal effect. Only part of the results is shown; count on the stated rates, not on these rows.

hNpr1 antagonist | canonical_smiles
1% | CC(C)CCNC(=O)Cn1nc2n(c1=O)CCCCC2
0% | Cc1ccc(Cl)c(C(=O)N2CCC3(CC2)[C@H](O)C[C@@H]3OCCO)c1
? | COc1ccc2c(c1)CCc1c-2n[nH]c1C(=O)N1CCC(c2noc(COc3ccc(C)cc3)n2)CC1
2% | O=C(c1cccs1)N1CCC(N2CC3CC(C2)[C@H]2CCCC(=O)N2C3)CC1 (some centres undefined)
0% | COc1ccc(-c2nn(-c3ccccc3)cc2CN2CCCC(C)(O)C2)c(F)c1 (centres undefined)
-6% | CCN1c2cc(C(=O)NCc3ccncc3)ccc2C(=O)N2CCCCC21 (centres undefined)
2% | COCCC(=O)N1CCN(C(=O)N2CC3CC(C2)[C@H]2CCCC(=O)N2C3)CC1 (some centres undefined)
5% | COc1ccc(C(=O)N2CCC3(CC2)C(OC)CN3c2cccc(F)c2)c(OC)c1 (centres undefined)
-12%[70.6 µM] | CC(C)(C)c1cc(C[C@@H]2CC[C@H](O)[C@@H](CNC(=O)C3CC3)O2)no1
0% | Cc1ncoc1C(=O)NCCc1ncc(C)n1CC1CC1
0% | CN(C)C(=O)N1CCCn2nc(CNC(=O)C(=O)c3ccco3)cc2C1
-22%[70.6 µM] | COc1ccccc1-c1[nH]nc2ncc(C(=O)N(C)c3ccccc3)nc12
-1% | CNc1nc2c(s1)C(c1ccccc1F)CC(=O)N2 (centres undefined)
2% | COC(=O)c1ccc2nc(C[C@@H]3C[C@@H](C(C)C)[C@H](CNC(=O)COCC(=O)O)C=C3C)[nH]c2c1
2% | CNC(=O)c1ccc(CC2CCN(C(=O)C3CC3)CC2)cc1
-5% | COc1ccccc1-c1cc2c(ccn2CC2CCN([S+](C)(=O)[O-])CC2)c(N2CCOCC2)n1
0% | Cc1ccnc(N2CCN(C3CCC4(CCNCC4)CC3)CC2)c1
-1% | O=C1CCN(C(=O)COc2ccc(F)cc2)CCCC(c2nc(-c3cnccn3)no2)CCN1 (centres undefined)
-12% | COC[C@H]1CCCN1Cc1cn(Cc2ccccc2)nc1-c1cc2ccccc2o1
-4% | CCCCN(Cc1cccnc1)C(=O)c1cnc(-c2ccc(C)cc2)[nH]c1=O
7% | O=c1[nH]nc2n1CCN(S(=O)(=O)c1ccc3c(c1)CCCC3)CC2
-13% | Cc1ccc(NC(=O)c2cc3n(n2)CC(c2ccc4c(c2)OCO4)OC3)c(Cl)c1 (centres undefined)
1% | COCC(=O)NCc1cc2n(n1)CCCN(Cc1ccc3nsnc3c1)C2
6% | CCC(C)NC(=O)N1CCC(Cc2nc(-c3ccncc3)n[nH]2)CC1 (centres undefined)
? | CCOC(=O)C1=C(C)N=C2SC=C(CC(=O)NCc3ccco3)N2C1c1cccc([N+](=O)[O-])c1 (centres undefined)
-2%[70.6 µM] | COc1ccc(CC(=O)N[C@H](C)c2onc(-c3cccnc3)c2C(=O)O)cc1
-1% | Cc1ccc(-n2c(C3CCN(C(=O)CC4CCCCC4)CC3)n[nH]c2=O)cc1
4%[70.6 µM] | COCc1cc(C[C@@H]2C[C@H](NC3CCN(C(C)=O)CC3)C2(C)C)no1
15% | Cc1nn(CCO)cc1CN1CCN(C(=O)c2cc[nH]c2)CC(O)C1 (centres undefined)
-21% | Cc1nc2ccccc2n1CCNC(=O)CC[C@H]1NC(=O)c2ccccc2NC1=O
28%[70.6 µM] | COCCNC(=O)c1nc(-c2ccc(F)cc2)c2cnccn12
2% | COCCNc1nc2cc(C(=O)N[C@@H]3CC[C@@H](N)C3)ccc2n1C
10% | COCCOC1CCOC2(CCN(C(=O)c3ccc(F)cc3)CC2)C1 (centres undefined)
1% | CN(Cc1cccc(-c2nn[nH]n2)c1)Cc1cn(-c2ccccc2)nn1
6%[70.6 µM] | O=C(O)COCC(=O)N[C@H]1CO[C@H]2[C@@H]1OC[C@@H]2n1nnnc1-c1ccc2c(c1)OCO2
2% | CCN1C(=O)C2CC3(CCN(C(=O)NCCCOC)CC3)CN2C1=O (centres undefined)
5% | Cc1noc(C)c1CCC(=O)NC1CC(c2cc(=O)[nH]c(C3CC3)n2)C1 (centres undefined)
-18%[70.6 µM] | O=C(N[C@H]1CO[C@H]2[C@@H]1OC[C@@H]2n1cc(CC2CCCCC2)nn1)C1CCCCC1
-8% | O=C1CCN(S(=O)(=O)c2ccccc2)CCCN(C(=O)C2CCCCC2)CCN1
11% | COc1ccc(-c2ccc3nnc(CNC(=O)c4cc(F)ccc4F)n3n2)cc1
-9% | COCCN1C(=O)c2cccn2CC1CNC(=O)CCC1CCCC1 (centres undefined)
1% | CO[C@H]1C(=O)N(C(C)C)[C@H]1C1CCN(S(=O)(=O)Cc2ccccc2)CC1
4%[70.6 µM] | COc1ccc(-c2nnc3ccc(N4CCc5ccccc5CC4)nn23)nc1
1% | Cc1cc(C(=O)N2CCC(N3C(=O)C(OCC4CC4)C34CCOCC4)CC2)n(C)n1 (centres undefined)
1% | Cn1c(C(=O)NCCCc2nnc(N)s2)cc(=O)n(C)c1=O

6 of the compounds above, as a markdown table:
| Structure | hNpr1 antagonist |
| --- | --- |
| O=C(c1cccs1)N1CCC(N2CC3CC(C2)[C@H]2CCCC(=O)N2C3)CC1 (some centres undefined) | 2% |
| COc1ccc(-c2nn(-c3ccccc3)cc2CN2CCCC(C)(O)C2)c(F)c1 (centres undefined) | 0% |
| CCN1c2cc(C(=O)NCc3ccncc3)ccc2C(=O)N2CCCCC21 (centres undefined) | -6% |
| COCCC(=O)N1CCN(C(=O)N2CC3CC(C2)[C@H]2CCCC(=O)N2C3)CC1 (some centres undefined) | 2% |
| COc1ccc(C(=O)N2CCC3(CC2)C(OC)CN3c2cccc(F)c2)c(OC)c1 (centres undefined) | 5% |
| CC(C)(C)c1cc(C[C@@H]2CC[C@H](O)[C@@H](CNC(=O)C3CC3)O2)no1 | -12%[70.6 µM] |

More compounds.
hNpr1 antagonist | canonical_smiles
-2% | Cc1nn(CC(=O)NC2CCCCCC2)c(=O)c2nc(C(C)C)sc12
6% | O=C(C1CC1)N1CCC(Cc2nc(C3CCOCC3)no2)CC1
-15% | NC(=O)C1(N2CCCCC2)CCN(C(=O)c2cc3n(n2)CC(c2ccc(Cl)cc2)OC3)CC1 (centres undefined)
-6% | CCC1=C(C(=O)OC)C(c2ccccc2)N2C(CC(=O)N3CCOCC3)=CSC2=N1 (centres undefined)
3% | Cc1cc(C[C@@H]2COC[C@@H]2NC(=O)CCCn2cncn2)on1
-21% | Cc1nc(-c2c3n(c(=O)n(CC(=O)NCc4ccc5c(c4)OCO5)c2=O)CCCC3)no1
-16% | O=C(Nc1cc(F)c(F)c(F)c1)N1CCC(OC2CCN(Cc3ccccc3)CC2)CC1
0%[70.6 µM] | CCCNC(=O)N[C@@H]1CCC[C@@H](C(=O)NCc2cc(C)on2)CC(=O)N(C)C1
? | O=C(c1nnn2c1COC(c1ccc(Cl)cc1)C2)N1CCN(C(=O)c2c(F)cccc2F)CC1 (centres undefined)
1% | CCn1cc([S+](=O)([O-])N2CCN(C(=O)N3CC4CC(C3)[C@H]3CCCC(=O)N3C4)CC2)cn1 (some centres undefined)
-4% | COc1ccc(C(=O)N[C@@H]2c3ccccc3C3(CCNCC3)[C@H]2OC)cc1C
2%[70.6 µM] | COc1cccc(CN2CCOC[C@H](Oc3cccnc3)C2)c1
0%[70.6 µM] | COCCNC(=O)Cc1c[nH]c2ncc(-c3ccccc3)cc12
-26%[70.6 µM] | Cc1nn(-c2ccccn2)c(C)c1[C@@H]1C=C[C@@H](NC(=O)NCc2ccccc2)C1
1% | O=C1CCC(C(=O)N2C[C@@H](COCC3CC3)[C@H](c3ccccn3)C2)=NN1

Overlap with the part before: four entries, then new ones.
hNpr1 antagonist | canonical_smiles
2%[70.6 µM] | COc1cccc(CN2CCOC[C@H](Oc3cccnc3)C2)c1
0%[70.6 µM] | COCCNC(=O)Cc1c[nH]c2ncc(-c3ccccc3)cc12
-26%[70.6 µM] | Cc1nn(-c2ccccn2)c(C)c1[C@@H]1C=C[C@@H](NC(=O)NCc2ccccc2)C1
1% | O=C1CCC(C(=O)N2C[C@@H](COCC3CC3)[C@H](c3ccccn3)C2)=NN1
-5% | Cc1ccc(-c2cc3c(=O)n(CCNC(=O)C4CCCCC4)ccn3n2)cc1C
5% | CC(C)c1nc2c(c(-c3ccc(O)cc3)n1)CCN(Cc1ccc(C(F)(F)F)cc1)CC2
? | Cc1ccccc1CC(=O)N1CCC2(CC1)N=C(c1cccc(Br)c1)NO2
-14% | C[S+](=O)([O-])c1ccc(-c2nc(C(=O)NCc3cccs3)n3ccccc23)cc1
1% | O=C(NC1CCOC2(CCOCC2)C1)c1ccc(Cl)s1 (centres undefined)
5% | Cc1noc(-c2cccs2)c1C(=O)NCc1ccco1
-17% | COc1cc(NC(=O)Cn2c(-c3cnccn3)nc(C)c(CCO)c2=O)cc(OC)c1
0%[70.6 µM] | CC(C)(C)CC(=O)N1Cc2[nH]cnc2C[C@H]1C(=O)NCc1ccccc1
-2% | CCOC(=O)C1=C(C)NC(=O)NC1c1ccccc1Cl (centres undefined)
1%[70.6 µM] | Cc1ccc(C(=O)N2CCn3c(nnc3C3CCCNC3)C2)cc1 (centres undefined)
1% | COc1cccc(CNC(=O)[C@@H]2C[C@@H](O)CN2C2CCN(C(=O)c3ccc4ccccc4n3)CC2)c1
-2%[70.6 µM] | CCC(=O)NC[C@H]1Cn2c(-c3ccc4c(c3)OCO4)cnc2CO1
-24% | COCCOc1ccc2c(n1)CCN(C(=O)Cc1ccccc1C)C2
-6% | Cc1nc2c(c(-c3ccc(O)cc3)n1)CN(Cc1ccccc1OC(F)(F)F)CC2
-12% | Cc1nc2c(OCC(=O)c3ccccc3)cccn2c(=O)c1-c1cc(C)n(-c2ccccc2)n1

Laid out differently: 2 of the compounds above
CC(C)(C)c1cc(C[C@@H]2CC[C@H](O)[C@@H](CNC(=O)C3CC3)O2)no1
- hNpr1 antagonist: -12%[70.6 µM]
Cc1nc2c(OCC(=O)c3ccccc3)cccn2c(=O)c1-c1cc(C)n(-c2ccccc2)n1
- hNpr1 antagonist: -12%

The listing continues:
hNpr1 antagonist | canonical_smiles
6%[70.6 µM] | CSCC(=O)N[C@H]1CCN2C(=O)N(c3cccc(C(C)=O)c3)C(=O)[C@@H]2C1
-2% | Cc1nc(CC2CCN(C(=O)c3cc4c(s3)CCC(C)C4)CC2)no1 (centres undefined)
-19% | CN(C)c1cccc(C(=O)N2CCC(n3cc(-c4nc(-c5ccccc5)no4)nn3)CC2)c1
3% | CCc1nc2c(c(-c3ccc(Cl)cc3)n1)CN([S+](=O)([O-])c1cccs1)CC2
-5% | CCC1Oc2ccc(NC(=O)C3CCCC3)cc2CN(Cc2ccccc2Cl)C1=O (centres undefined)
1% | O=C(NCC1CCCCC1)C1CCN(C(=O)c2ncn3c2COC(c2ccc(Cl)cc2)C3)CC1 (centres undefined)
18µM* | COc1ccc(CN2C[C@H]3CN(Cc4ccc(C)cc4)CCN3C2=O)cc1
10%[70.6 µM] | C[C@H](O)c1onc(-c2ccccc2)c1C(=O)NC1CCCCC1
3% | CN(C)C(=O)c1cccc(-c2cc(F)c3nc(N)sc3c2)c1
-12% | CCc1cccc(NC(=O)c2ccc(Cn3ccn4nc5c(c4c3=O)CCCC5)cc2)c1
0% | CCCN(CC1CCOC1)S(=O)(=O)c1cc(F)ccc1F (centres undefined)
-2% | Cn1cc(C(=O)N2C[C@@H](C(=O)O)[C@H](c3cccc(F)c3)C2)c(=O)[nH]c1=O
12%[70.6 µM] | Cn1cccc1CN1CCC2(C1)NC(=O)c1ccccc1CO2 (centres undefined)
-2% | CCC(=O)N1CCCN(Cc2ccc3c(c2)OCO3)c2ccccc21
-29% | COC(=O)C1CCN(C(=O)CC[C@H]2CNC(=O)[C@@H]3[C@@H](CCN3Cc3cccc(Cl)c3)N2C)CC1
-3% | O=C(c1ccc(F)cc1)N1CCC(c2n[nH]c(=O)n2-c2ccccc2)CC1
-3%[70.6 µM] | COc1nc2nc(CC3CC3)n(C)c2cc1-c1cccc(NC(C)=O)c1
14% | O=C(c1ccccc1Cl)N1CCCC(c2nn(-c3cccc(Cl)c3)c(=O)[nH]2)C1 (centres undefined)
4% | COCCOC1CCN(S(=O)(=O)c2ccc(OC)cc2)CC1
8% | Cc1cc(C)n(CC(=O)N2CCC(c3nc(CCOCC4CCCC4)no3)C2)n1 (centres undefined)
-3% | O=C(NC1CC(c2nnc(CO)n2C2CC2)C1)c1ccc(F)cc1Cl (centres undefined)
11% | CCN1C(=O)CCN(C(=O)NC)CC12CCOCC2
15%[70.6 µM] | COc1ccccc1C(=O)N1CCC2(CC(C)=NO2)C1 (centres undefined)
-2% | CCCS(=O)(=O)N1CC(N(Cc2cccnc2)CC(C)C)C1
-24% | Cc1ccc(CNC(=O)CCC2CCN(S(=O)(=O)c3ccccc3)CC2)cc1
2% | O=C(c1cnccn1)N1CCC(Nc2cccnc2)C1 (centres undefined)
4% | CN(C)C[C@@H]1CN(S(C)(=O)=O)C[C@H]1NC(=O)CN1CCOCC1
-1% | COc1cccc(CN2CCCC3(CCN(C(=O)c4cnc(C)cn4)C3)C2)c1 (centres undefined)
-21% | COc1cccc(CN2Cc3cc(NC(=O)c4ccc(F)cc4F)ccc3OC(C)C2=O)c1 (centres undefined)
-2% | O=C(CC1COCCN1)N(Cc1cccnc1)Cc1cccnc1 (centres undefined)
-1% | Cc1ccc(S(=O)(=O)N2CCC(Oc3ncccc3C(=O)N(C)C)C2)cc1Cl (centres undefined)
6% | O=C(O)C1(Oc2ccccc2)CCN(c2cc(NCCO)ncn2)CC1
-3% | Cc1ccc(C(=O)N2C[C@@H](CO)[C@H](c3ccccn3)C2)cc1F
2% | COC(=O)C1=CN(CC(=O)Nc2ccc(F)cc2F)S(=O)(=O)N=C1C
-24% | CC(C)Oc1ccc(CNC(=O)CCC2CCN(C(=O)c3ccccc3)CC2)cc1
-12%[70.6 µM] | O=C(Cc1ccccn1)N1CCC(N2CCCNC2=O)CC1

Compound activity (PubChem)
